TRPML1 ag = human mucolipin-1 channel agonism; AID 624414; actives 0.12% (n = 410,000); Q9GZU1; activation, % (concentration not given with the values); TRPML1-expressing cells, Ca2+ dye fluorescence, FDSS; host cell line not named in the record; reference of the full effect not given here; in the data active = activation above about 50%; inconclusive = about 30% to 50%; inactive = below about 30%; further: 0% is about no effect; the text of the record puts the active cut at 80%
Target sequence (Q9GZU1 whole entry, looked up): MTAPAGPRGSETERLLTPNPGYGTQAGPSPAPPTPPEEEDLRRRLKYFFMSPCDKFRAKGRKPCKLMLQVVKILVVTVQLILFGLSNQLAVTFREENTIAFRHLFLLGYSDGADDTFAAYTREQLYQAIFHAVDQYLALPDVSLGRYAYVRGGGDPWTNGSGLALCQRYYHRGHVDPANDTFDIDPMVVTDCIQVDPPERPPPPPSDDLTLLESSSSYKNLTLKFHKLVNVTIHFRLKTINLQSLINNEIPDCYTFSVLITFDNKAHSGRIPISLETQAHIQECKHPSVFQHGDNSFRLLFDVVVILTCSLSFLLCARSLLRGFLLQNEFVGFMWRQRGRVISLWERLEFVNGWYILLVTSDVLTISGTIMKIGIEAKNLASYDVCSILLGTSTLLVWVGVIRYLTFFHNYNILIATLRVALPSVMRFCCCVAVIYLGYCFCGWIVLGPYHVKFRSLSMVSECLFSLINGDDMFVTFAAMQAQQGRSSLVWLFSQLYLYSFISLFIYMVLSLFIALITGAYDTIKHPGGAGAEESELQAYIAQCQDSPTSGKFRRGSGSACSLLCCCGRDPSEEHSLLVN
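Cells: TRPML1-DL, 1X Tet inducer, ~16 h at 37 degrees C/5% CO2. Dye: ABD Ca8 no-wash + quencher, 45-90 min RT. Read: 10 s baseline, compound add, 110 s agonist phase; 54-4 EC80 (4uM final), 110 s antagonist phase.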
TRPV1 PAM = human TRPV1 potentiation; actives 0.02% (n = 320,000); Q8NER1; TRPV1-expressing cells, Fluo-8 calcium influx, capsaicin EC20 potentiation; host cell line not named in the record; control for the full effect not named in the record; potentiation, % at 8.33 µM; active means potentiation above 80%; inconclusive means 30% to 80%; inactive means below 30%; further: 0% is about no effect
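Cells expressing TRPV1 were dye-loaded with Fluo-8 and read kinetically: 10 s baseline, 3 min after compound (agonist portion), then 2 min after EC20 capsaicin (allosteric enhancer portion). Calcium-bound dye fluorescence at 480/520 nm.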
D2 potentiator = human D2 receptor positive allosteric modulation; AID 624464; DiscoveRx D2 beta-arrestin cells, luminescence, 90 min; 100% = 57 uM dopamine signal; P14416; actives 0.23% (n = 360,000); potentiation, % (no concentration beside the values); active = potentiation of 50% or more; inconclusive = 30% to 50%; inactive = 30% or less;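 further: compound concentration not given in the record; tested on top of an EC20 dose of dopamine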
Target sequence (P14416 whole entry, looked up): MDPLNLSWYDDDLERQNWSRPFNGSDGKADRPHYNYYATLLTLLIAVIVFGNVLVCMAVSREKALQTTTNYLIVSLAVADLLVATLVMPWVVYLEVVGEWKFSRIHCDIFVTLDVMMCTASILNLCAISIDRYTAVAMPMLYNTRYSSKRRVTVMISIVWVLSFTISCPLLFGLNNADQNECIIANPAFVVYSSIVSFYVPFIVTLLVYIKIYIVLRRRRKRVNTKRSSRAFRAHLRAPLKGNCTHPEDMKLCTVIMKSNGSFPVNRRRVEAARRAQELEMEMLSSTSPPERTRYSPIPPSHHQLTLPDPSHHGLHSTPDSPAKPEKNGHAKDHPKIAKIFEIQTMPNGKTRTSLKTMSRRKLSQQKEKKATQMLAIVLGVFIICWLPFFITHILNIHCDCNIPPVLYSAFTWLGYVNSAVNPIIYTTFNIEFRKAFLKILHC
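PathHunter D2 cells, attached overnight at 37 deg C, received compound in DMSO plus dopamine at EC20 (50 nM final) for 90 min at 37 deg C. Beta-arrestin recruitment was read as luminescence after 1 h with detection reagent at ambient temperature.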
TRPML1 inh = blocks the human TRPML1 channel. Q9GZU1. AID 624415. actives 0.02% (n = 390,000). activity change, negative = inhibition, % (concentration not given with the values). TRPML1-inducible cells, Ca2+ dye fluorescence, FDSS; active compounds read low; inhibition of EC80 agonist-evoked calcium signal; in the data active means activity change below about -50%; inconclusive means about -30% to -50%; inactive means above about -30%;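 further: stimulus is agonist 54-4 at its EC80 concentration; on the % scale 0 is the no-effect control and ±100 the full control effect; the text of the record puts the active cut at -80%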
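Tet-induced TRPML1-DL cells loaded with Ca8 no-wash calcium dye were read kinetically on FDSS. Compound addition was followed by EC80 agonist 54-4 (4 uM final); inhibition was read over 110 s.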
CtBP-E1A blk = blocks the CtBP interaction with E1A | AlphaScreen GST-E1A/His-CtBP binding, 1536-well; active compounds read low; control for the full effect not named in the record | activity change, % (no concentration beside the values) | actives 0.49% (n = 340,000) | AID 651724; in the data active means activity change below about -65%; inconclusive means about -30% to -65%; inactive means above about -30%; further: on the % scale 0 is the no-effect control and ±100 the full control effect
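In 5 uL wells, 23 nL compound meets equimolar GST-E1A and His-CtBP (5X stock 125 nM each) for 2 h, 37 °C. Beads (5X, 50 ug/mL) then 1 h, 37 °C, dark.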
Six1-Eya2 inh = inhibitors of human Six1/Eya2 interaction; actives 0.56% (n = 360,000); activity change, % (test concentration not listed); AlphaScreen GST-Six1/His-Eya2 binding, biochemical; active compounds read low; control for the full effect not named in the record; AID 651725; in the data active = activity change below about -65%; inconclusive = about -30% to -65%; inactive = above about -30%; further: on the % scale 0 is the no-effect control and ±100 the full control effect
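Six1/Eya2 binding was read as AlphaScreen signal after compounds were pinned into GST-Six1 plus His-tagged Eya2 (5X stock 250/500 nM) in pH 8.0 Tris/NaCl/TCEP buffer, beads added, then incubated 1 h, 37 C, dark.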
* marks the source's active call; other numbers are inactive results; ? = inconclusive; · = no result given.

SMILES	TRPML1 ag	TRPV1 PAM	D2 potentiator	TRPML1 inh	CtBP-E1A blk	Six1-Eya2 inh
Cc1nc2ccc(S(=O)(=O)NC(CC(C)C)C(=O)O)cc2s1 (stereo unspecified)	0.9	16	1	-10	-1	1
O=C(O)/C=C/c1ccc(Oc2ncccn2)cc1	0.2	-1	-8	-8	2	10
O=C1NC(C(=O)O)=CC(c2ccc([N+](=O)[O-])cc2)N1 (stereo unspecified)	0.8	26	3	-8	·	-5
CC(=O)c1ccc(C(=O)NC2CCCN(Cc3ccccc3F)C2)cc1 (stereo unspecified)	-0.6	7	-31	22	·	-4
CC(C)[C@H]1COCCS(=O)(=O)N1Cc1ccccc1F	0.3	·	-11	-6	-3	11
CCc1ccc(N2CSC3=C(C#N)C(c4cccs4)CC(=O)N3C2)cc1 (stereo unspecified)	0.5	16	-14	-6	-8	-9
CCOc1cccc(NC(=O)/C(C#N)=C\c2cccnc2)c1	1.4	-5	-7	13	-17	-2
O=Cc1ccc(-c2ccccc2OC(F)(F)F)o1	-0.6	11	-8	-7	0	12
COc1ccc(C(=O)C2CCCN(Cc3cccn3-c3ccc(Cl)cn3)C2)c(OC)c1 (stereo unspecified)	2.6	-7	-25	12	-9	-17
Cc1nc2ccc(S(=O)(=O)NC(C(=O)NCc3ccco3)C(C)C)cc2s1 (stereo unspecified)	-0.4	24	-2	72	-22	-23
CO/N=C(/CNC(=O)c1ccccc1Cl)c1ccc(Cl)cc1	2.2	-10	-9	31	-4	2
COc1cccc(/C=C/C2=CC(C)(C)NC(=S)N2)c1	1.6	-1	-7	-25	8	5
CC/C(=N\NC(=O)c1cc(C2CC2)[nH]n1)c1ccccc1	0.7	11	0	23	·	0
COc1ccc(S(=O)(=O)NCc2ccncc2)cc1NC(=O)c1ccccc1F	-0.9	-1	-3	-2	-6	0
COc1ccc(CCCNC(=O)C2CCC(=O)N(CCc3cccc(F)c3)C2)cc1 (stereo unspecified)	-0.6	-7	-15	2	7	2
CCc1nnc(NC(=O)CSc2nnc3scc(-c4ccc(C)cc4)n23)s1	1.0	·	-4	41	-3	-2
Cc1cc2n(n1)SC(Nc1cc(Cl)ccc1Cl)N2 (stereo unspecified)	-0.3	5	-3	1	0	-3
CCc1ccc(OCC(=O)Nc2nnc(C3CCCC3)s2)cc1	0.3	5	-1	-11	4	1
Cn1cnc([N+](=O)[O-])c1S(=O)(=O)c1ccc(Cl)cc1	-0.5	1	-7	7	2	6
COc1ccc(OC)c(Nc2nc(-c3sc(NC(=O)CC(C)C)nc3C)cs2)c1	0.8	-19	-6	3	-5	-16
Cc1occc1C(=O)n1nnc2ccccc21	-1.0	23	25	13	15	1
CCN(Cc1ccccc1)Cc1nnnn1Cc1ccccc1	-1.4	-3	3	-2	·	10
COc1ccc(/C(N)=N/OC(=O)Cc2ccc(C)cc2)cc1OC	2.6	2	-9	-6	·	26
CC(C(=O)NC1CCCc2ccccc21)N1CCN(Cc2ccc3c(c2)OCO3)CC1 (stereo unspecified)	-0.1	0	-15	6	-6	-11
C=CCOc1cccc(C2/C(=C(\O)c3ccc4c(c3)OCCO4)C(=O)C(=O)N2Cc2cccnc2)c1 (stereo unspecified)	-0.6	8	-1	21	3	0
COc1ccc2cc(C(=O)N3CCN(Cc4ccc5c(c4)OCO5)CC3)[nH]c2c1	1.6	-2	-26	-8	-97*	16
Cc1noc(C)c1C(=O)OCC(=O)NCCC1=CCCCC1	-0.9	8	-12	-2	12	0
COC(=O)c1ccc(C2C(C(C)=O)=C(O)C(=O)N2CCO)cc1 (stereo unspecified)	-0.3	4	10	-11	-7	-9
CCC(C)c1ccc(NC(=O)c2c([N+](=O)[O-])cnn2CC)cc1 (stereo unspecified)	0.0	-1	-1	-3	1	-26
CN(C)S(=O)(=O)Oc1ccsc1C(=O)Nc1cccc(Cl)c1	0.4	-3	-13	-5	14	6
Cc1ccc(NC(=O)C(C)c2ccc(-c3ccccc3)c(F)c2)cc1 (stereo unspecified)	2.4	4	-6	16	6	16
Cc1ccnc(N2CCC(C(=O)NCc3ccc(F)cc3)CC2)n1	1.6	-8	-16	15	-3	7
NS(=O)(=O)c1ccc(Nc2nc(-c3ccccc3)cs2)cc1	-0.2	11	-10	20	-11	-3
CCn1cc(Br)c(C(=O)NCc2ccco2)n1	0.8	20	-1	-1	4	5
Cn1c(N)c(C(=O)COc2ccc(Cl)cc2Cl)c(=O)n(C)c1=O	0.9	-10	0	0	-3	-1
CN(C)CCC=C1c2ccccc2C=Cc2ccccc21	0.0	-8	-28	1	-12	-4
O=C(CSc1n[nH]c(=O)n1C1CC1)NCc1ccccc1Cl	-0.4	2	-4	16	8	-4
CCOC(=O)N1CCN(C(=O)COCc2cc(-c3ccc4c(c3)OCO4)on2)CC1	-0.1	-22	-7	-15	-7	-1
CCCN1CCC(N2CCCC(C(=O)O)C2)CC1 (stereo unspecified)	1.9	-7	-1	0	3	0
Cn1c(N)c(S(=O)(=O)N2CCN(c3cccc(Cl)c3)CC2)c(=O)n(C)c1=O	-0.4	-1	-14	61	-10	-4
CC(C)(CC(=O)O)CC(=O)Nc1ccccc1Oc1ccccc1	0.1	-9	-2	3	5	10
Cc1ccc(C(=O)N/C(=C\c2ccco2)C(=O)N2CC(C)OC(C)C2)cc1C (stereo unspecified)	-0.2	-13	-3	0	5	6
Oc1ccccc1-c1cc(C(F)(F)F)nc(-c2ccccc2)n1	1.3	7	1	10	-3	-1
O=C(/C=C/c1ccccc1)n1cnnc1SC/C=C/c1ccccc1	-0.1	10	-2	-8	-2	-16
O=C(c1ccccc1)n1ccc2ccccc21	0.5	9	-7	29	15	22
COc1ccc(OCC(=O)Nc2ccc(S(=O)(=O)N3CCOCC3)cc2)cc1	-0.8	1	-3	1	1	-2
O=C(CSc1ccc(-c2ccc(-n3cccn3)cc2)nn1)Nc1ccccc1F	-0.1	5	3	-19	-14	0
CSCCC1NC(=O)N(CC(=O)Nc2ccc(Br)cc2Br)C1=O (stereo unspecified)	-0.6	4	-12	-6	·	-4
COC(/C(=N/O)c1ccc(Cl)cc1)c1ccccc1 (stereo unspecified)	2.5	-3	2	-5	-23	-1
Cc1cc(=O)n2nc(N3CCCC(C(=O)NCCc4ccccc4)C3)sc2n1 (stereo unspecified)	0.4	2	-4	-4	-5	-1
Cc1ccccc1-c1cccc([C@@H]2C[C@H]3[C@H](CON3C)CN2C(=O)CCc2ccccc2)c1	0.3	·	·	-2	-7	-15
Cn1c(=O)c2cc(S(=O)(=O)N3CCN(c4cccc(C(F)(F)F)c4)CC3)ccc2n(C)c1=O	-0.7	-21	-13	-4	-1	-1
CC(=O)c1cnc2nc(SCc3cccc(C)c3)nn2c1C	·	-1	8	·	·	2
Cc1ccc(C(=O)N/C(=C/c2ccco2)C(=O)Nc2cccc(C(=O)O)c2)cc1	0.9	-3	-3	-22	-13	-14
CCCCCCCCNC(=S)NCCN1CCCCC1	-0.4	6	-24	4	·	-1
COc1cc(OC)cc(-c2c(-c3cccs3)c3cc(-c4cc(OC)c(OC)c(OC)c4)ccc3n2C)c1	-0.4	·	-6	12	-6	-4
OCCN1CCN(C(=S)Nc2ccc(Oc3ccccc3)cc2)CC1	0.9	6	-5	6	3	-10
CN1CCN(C(=O)CNC(=O)Cc2ccc(Cl)cc2)CC1	0.6	-10	-1	37	-17	9
O=C(NC(N1CCOCC1)C(Cl)(Cl)Cl)c1cc([N+](=O)[O-])cc([N+](=O)[O-])c1 (stereo unspecified)	0.3	2	4	-9	3	1
COc1ccc(S(=O)(=O)N(C)CC(=O)N2CCOCC2)cc1Cl	-0.5	5	1	3	-10	3

Other structures:
SMILES	TRPML1 ag	TRPV1 PAM	D2 potentiator	TRPML1 inh	CtBP-E1A blk	Six1-Eya2 inh
COC(=O)Cc1ccc2c3ccccc3n(C)c2c1	0.5	2	-10	0	6	15
O=C(CNCCC1=CCCCC1)Nc1ccccc1N1CCCCC1	2.5	-7	-23	0	1	0
CCOC(=O)c1[nH]ncc1[C@@H]1C[C@H]2CN(Cc3cccc(Cl)c3)C(=O)[C@]23CCCN13	0.4	-7	-8	9	3	1
O=C(CN1C(=O)NC2(CCc3ccccc32)C1=O)c1ccc(Br)s1 (stereo unspecified)	0.2	-14	-15	-10	0	1
Cc1ccc(SC(C)C(=O)NCc2ccc(F)cc2)cc1 (stereo unspecified)	-0.4	-5	-3	3	-15	28
COc1ccc(CCNC(=O)Nc2ccc3nc([C@@H]4O[C@H](CO)[C@@H](O)[C@H](O)[C@H]4O)[nH]c3c2)cc1Br	-0.5	·	-1	·	-1	-15
CCOC(=O)c1c(CN(CC)CC)n(C)c2cc(Br)c(O)cc12	-1.1	-16	-12	9	-1	-6
Nc1ccc2oc3ccccc3c2c1	0.5	3	23	-9	-17	5
Cc1ccc(C)c(N2CCN(C(=O)C3CCN(c4nc(C)cc(C)n4)CC3)CC2)c1	3.8	0	-3	11	-2	-5
CCOc1ncccc1C(=O)OCC(=O)NC(=O)NC(C)C	1.9	?	-6	-1	8	10
O=C(CNc1cccc2ccccc12)N/N=C/c1ccc([N+](=O)[O-])o1	3.3	4	0	-21	-12	-17
O=C(NCc1ccco1)/C(=C/c1ccco1)NC(=O)c1ccc(Br)o1	-0.8	0	-10	-10	-8	4

Pulled by structure from the entries so far:
SMILES	TRPML1 ag	TRPV1 PAM	D2 potentiator	TRPML1 inh	CtBP-E1A blk	Six1-Eya2 inh
CCOC(=O)c1c(CN(CC)CC)n(C)c2cc(Br)c(O)cc12	-1.1	-16	-12	9	-1	-6
O=C(NCc1ccco1)/C(=C/c1ccco1)NC(=O)c1ccc(Br)o1	-0.8	0	-10	-10	-8	4
CCOc1ncccc1C(=O)OCC(=O)NC(=O)NC(C)C	1.9	?	-6	-1	8	10

Later entries.
SMILES	TRPML1 ag	TRPV1 PAM	D2 potentiator	TRPML1 inh	CtBP-E1A blk	Six1-Eya2 inh
O=C(NCc1nnnn1-c1ccc(F)c(F)c1)c1ccc2c(c1)OCO2	-0.2	1	-15	-7	11	4
Cc1ccc(NC(=O)OCCNC(=O)OC(C)C)cc1	-0.2	-30	-6	-16	-14	1
CCCn1c(SCC(=O)Nc2cccc(S(=O)(=O)N3CCCC3)c2)n[nH]c1=O	0.9	8	-10	6	·	5
Cc1ccc([C@H]2C[C@@H](O)[C@H](n3cc(C4CC4)nn3)CN2C(=O)C2CCCCC2)cc1	-0.2	·	-4	9	-7	-2
CCCc1nc(NC2CCCCC2)c(C#N)c2c1COC(C)(C)C2	0.0	1	-21	5	-5	-10
N#Cc1nc(-c2cccs2)oc1N1CCN(c2ccccc2)CC1	0.3	-17	-11	1	-12	?
Cc1ccc(S(=O)(=O)N2CCOCC2)cc1C(=O)NC(=S)N(Cc1ccccc1)C(C)C	-0.3	1	11	6	-5	-2
COc1cccc(-c2cc(NC=O)c3ncc(-c4cccc(C(=O)NCCN(C)C)c4)n3c2)c1	-0.3	·	-1	·	-16	-18
